Screening results as filed in PubChem BioAssay.
CapD inh – CapD enzyme inhibition; purified CapD enzyme, fluorescence intensity read-out; hits give low values; some hits fall short of the stated cut; z-score (test concentration not listed); 140,000 compounds, 0.23% hits;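 active = z-score under -4 in either of two replicates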;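 note: stock transfer was 100 nL into about 40 µL; score is relative to mean and spread of the plate; one replicate is shown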
AID504770 – growth inhibitors of E. coli YBA685 in a screen for V. cholerae RctB (chromosome II replication) inhibitors. AID 504770. 130,000 compounds, 0.27% hits. E. coli YBA685 rctB-dependent plasmid, OD600 growth, 3 h; hits give low values. z-score (test concentration not listed);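 active = z-score under -2 on both plates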;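 note: wells of about 30 µL received 100 nL stock; score is relative to mean and SD of the test wells; the first replicate is given; strong numbers were not always called active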
Active calls of the source: *.

What do the screens show for `COC(=O)C(Cc1c[nH]c2ccccc12)NC(=O)CN1CCCCC1` (stereo not given)?
CapD inh: 0.26

What do the screens show for `O=C(O)C12CCC(C(=O)O)(CC1)CC2`?
CapD inh: 0.345; AID504770: -0.35

Results for O=C(CN1CC(c2ccccc2)CC1=O)Nc1ccccc1 (stereo not given) ?
CapD inh: 0.175; AID504770: -0.15

What do the screens show for `O=C(O)c1ccccc1SC1CC(=O)N(C2CCCCC2)C1=O` (stereo not given)?
CapD inh: -0.3; AID504770: 0.45

Results for CCOC(=O)c1c(C)oc2c1c(C=NCCO)c(O)c1ccccc12 ?
AID504770: 0

How did Cc1ccc(N2C(=O)/C(=C/c3cc(Br)c(N4CCOCC4)o3)C(=O)NC2=S)c(C)c1 do in these assays?
CapD inh: 0.385; AID504770: 1

What do the screens show for `Fc1ccccc1Cn1c(C2CC2)nc2ccccc21`?
AID504770: 1.05

How did O=C1CCc2cc(S(=O)(=O)N3CCN(c4cccc(Cl)c4)CC3)cc3c2N1CCC3 do in these assays?
AID504770: 1.7

How did O=c1c2ccccc2nc(SCc2ccccc2)n1Cc1ccco1 do in these assays?
AID504770: -0.55

Results for COC(=O)c1ccc2c(c1)C(=O)c1ccccc1CO2 ?
CapD inh: 0; AID504770: -1.8

Results for Clc1cccc(-c2nc(-c3ccccc3)c(-c3ccccc3)[nH]2)c1 ?
CapD inh: 40.9

Results for CCOC(=O)C1=c2s/c(=C/c3ccccc3Br)c(=O)n2C(N)=C(C#N)C1c1ccccc1Br (stereo not given) ?
CapD inh: -0.505

Results for COc1cc(OC)c(CNC(=O)OCc2cccc(OCc3ccccc3)c2)c(OC)c1 ?
CapD inh: 0.02

How did O=C1CN=C(Nc2ccccc2)N1c1ccccc1 do in these assays?
AID504770: -0.1

How did O=S(=O)(C/C=N/OCc1c(Cl)cccc1Cl)c1ccc(Cl)cc1 do in these assays?
CapD inh: -0.41

Pulled one by one from above (3):
Results for COc1cc(OC)c(CNC(=O)OCc2cccc(OCc3ccccc3)c2)c(OC)c1 ?
CapD inh: 0.02

What do the screens show for `O=C(O)c1ccccc1SC1CC(=O)N(C2CCCCC2)C1=O` (stereo not given)?
CapD inh: -0.3; AID504770: 0.45

How did Cc1ccc(N2C(=O)/C(=C/c3cc(Br)c(N4CCOCC4)o3)C(=O)NC2=S)c(C)c1 do in these assays?
CapD inh: 0.385; AID504770: 1

Next part
How did N#CCC(O)(c1nc2ccccc2s1)C(F)(F)F (stereo not given) do in these assays?
AID504770: 0.3

How did CC1CC(C)CN(C(=O)COC(=O)c2ccc(O)cc2)C1 (stereo not given) do in these assays?
AID504770: 0.3

How did CSC(=S)Nc1ccc(Br)cc1 do in these assays?
CapD inh: -1.02; AID504770: -1.45

Results for CC(C)Oc1ccccc1C(N)=O ?
CapD inh: -0.285; AID504770: 0.3

What do the screens show for `Cc1ccc(NCn2c(=O)sc3ccccc32)cc1`?
CapD inh: 0.27; AID504770: -0.3

How did CSc1nc(NCCO)c(C#N)c(-c2ccc(C(C)(C)C)cc2)n1 do in these assays?
CapD inh: 4.11; AID504770: -1.3

How did O=C(C1CCCN1c1nnc(N2CCCC2=O)s1)N1CCN(c2ccccc2)CC1 (stereo not given) do in these assays?
CapD inh: -0.775; AID504770: -1

What do the screens show for `N#Cc1cnn(C(=O)c2cccc(S(=O)(=O)Nc3ccc(Cl)cc3)c2)c1N`?
AID504770: -1

Results for CNC(=O)c1c[nH]c2ccc(S(=O)(=O)Nc3ccccc3F)cc2c1=O ?
CapD inh: 2.02; AID504770: 0.25

What do the screens show for `CC(C)(C)OC(=O)C(Cc1c[nH]c2ccccc12)NC(=O)c1ccccc1COC(=O)c1ccccc1` (stereo not given)?
CapD inh: 0.5

Results for CC1(C)OC(C)(C)/C(=C/c2ccc3cccnc3c2)C1=O ?
CapD inh: -3.65; AID504770: 0.85

Results for Cc1cc(C(=O)CONC(=O)C23CC4CC(CC(C4)C2)C3)c(C)n1C ?
AID504770: 1.25

Results for COC(CNC(=O)c1ccc2c(Cl)c3c(nc2c1)CCCC3)OC ?
CapD inh: -0.29; AID504770: -0.75

Results for Cc1cc2cc(CNC(=O)CCc3ccccc3)ccc2[nH]1 ?
CapD inh: -0.39; AID504770: -1

What do the screens show for `CCN1CCN(C(=O)c2cc(C)nn2-c2ccccc2)CC1`?
CapD inh: -2.15; AID504770: 0.05

How did O=C(CN1CC(c2ccccc2)CC1=O)OCc1ccccc1F (stereo not given) do in these assays?
CapD inh: -0.335; AID504770: 1.65

What do the screens show for `Cc1ccc(S(=O)(=O)N2CC3C=CC2C3)cc1` (stereo not given)?
CapD inh: -0.995; AID504770: -0.3

Results for Cc1c(Cl)cccc1NC1OC(=O)c2ccccc21 (stereo not given) ?
CapD inh: -0.37; AID504770: -2.1

How did COC(=O)CN1C(=O)S/C(=C/c2cc(C)n(C)c2C)C1=O do in these assays?
CapD inh: -0.6; AID504770: 2

How did CC(Sc1nc2ccccc2[nH]1)C(=O)O (stereo not given) do in these assays?
CapD inh: 0.105

What do the screens show for `CC(C)(C)c1ccc(Cn2c(=N)n(CC(=O)O)c3ccccc32)cc1`?
CapD inh: -0.555; AID504770: -0.85

What do the screens show for `CC(=O)NCc1ccc(C(=O)CSc2nnc(C3CC3)n2C2CC2)cc1`?
AID504770: -0.55

What do the screens show for `CCOc1cc(C2C(C#N)=C(N)Oc3n[nH]c(-c4cccc([N+](=O)[O-])c4)c32)ccc1OC(=O)N1CCOCC1` (stereo not given)?
CapD inh: -0.605

What do the screens show for `N=C1c2ccccc2CN1c1ccc(Br)cc1`?
CapD inh: -0.15; AID504770: -0.95

Results for Cc1csc(N/N=C\CCc2ccccc2)n1 ?
AID504770: -0.25

What do the screens show for `O=C(Nc1cccc(F)c1)NC1(C(=O)NCc2ccco2)CCCCC1`?
AID504770: 0.2

Results for Cc1cccc(-c2ncc(S(=O)(=O)C(C)(C)C)c(N)n2)c1 ?
CapD inh: -0.23; AID504770: -0.1

Results for CC1=NN(c2ccc(N=Cc3ccc(N(C)C)cc3)cc2)C(=O)C1 ?
CapD inh: -0.91

Results for CCC1C(=O)NCCN1C(=O)c1ccc(-c2ccccc2)cc1 (stereo not given) ?
CapD inh: 0.36; AID504770: -0.55

What do the screens show for `O=C(NCc1cccc(C(F)(F)F)c1)c1ccc(CCN2CCCC2)nc1`?
CapD inh: -0.72

Next section; it opens with the five that closed the last part.
What do the screens show for `O=C(Nc1cccc(F)c1)NC1(C(=O)NCc2ccco2)CCCCC1`?
AID504770: 0.2

Results for Cc1cccc(-c2ncc(S(=O)(=O)C(C)(C)C)c(N)n2)c1 ?
CapD inh: -0.23; AID504770: -0.1

Results for CC1=NN(c2ccc(N=Cc3ccc(N(C)C)cc3)cc2)C(=O)C1 ?
CapD inh: -0.91

Results for CCC1C(=O)NCCN1C(=O)c1ccc(-c2ccccc2)cc1 (stereo not given) ?
CapD inh: 0.36; AID504770: -0.55

What do the screens show for `O=C(NCc1cccc(C(F)(F)F)c1)c1ccc(CCN2CCCC2)nc1`?
CapD inh: -0.72

What do the screens show for `Cc1cc(=O)n2[nH]c(C(=O)O)nc2n1`?
CapD inh: -0.365

Results for CCOC(=O)C1=C(C(=O)OCC)SC(=C2C(=S)C(C)(C)N(C(=O)C(C)C)c3cc(C)ccc32)S1 ?
CapD inh: 0.38

How did CN(Cc1ccccc1)Cc1c(O)ccc2c3c(c(=O)oc12)CCC3 do in these assays?
CapD inh: 44.2

What do the screens show for `O=C(Cn1c2c(c(-c3ccccc3Cl)cc1=O)CCC2)NCc1cccs1`?
CapD inh: 9.96; AID504770: 0.2

How did CCN1C(=O)c2ccc(C(=O)Nc3ccc(O)cc3C)cc2C1=O do in these assays?
CapD inh: 0.085; AID504770: 0.45

How did CCn1c(SCC(=O)Nc2ccccc2)nc2c(c1=O)SC(C)C2 (stereo not given) do in these assays?
CapD inh: -1.12; AID504770: 1.65

Results for Cc1ccc2[nH]c3c(c2c1)CCN(C)C3 ?
CapD inh: 0.43

What do the screens show for `O=C1C(=O)c2ccccc2C(O)=C1C1CCC(c2ccc(Cl)cc2)CC1` (stereo not given)?
CapD inh: -0.705; AID504770: 0.2

What do the screens show for `O=C(N/N=C/c1cc2ccccc2o1)c1cc2ccccc2cc1O`?
CapD inh: -0.16

How did Cc1c(NC(=O)O/N=C(/N)c2ccccc2)sc2nc(-c3ccc(Cl)cc3)nn12 do in these assays?
CapD inh: 1.51; AID504770: -1

Results for Cn1c(=O)c2c(n(C)c1=O)n(Cc1ccccc1)c(=O)n2C ?
CapD inh: -0.225

How did Cc1ccc2occ(CC(=O)Nc3nc4ccc(S(C)(=O)=O)cc4s3)c2c1 do in these assays?
CapD inh: -0.845; AID504770: -0.35

How did COc1cccc(-c2nc(C(N)=O)c3c(n2)n(-c2cccc(OC)c2)c(=O)n3C)c1 do in these assays?
CapD inh: 3.65; AID504770: -1.45

Results for CC(C)(C)NC1=C(C(=O)c2ccccc2)N(CC(=O)c2ccccc2)S(=O)(=O)c2ccccc21 ?
CapD inh: 3.16; AID504770: -0.25

What do the screens show for `CCOc1ccc(/C=C2\SC(=S)N(CCCC(=O)N(CCO)c3ccccc3)C2=O)cc1`?
CapD inh: -0.84

How did CN(C)/C=C(\c1ccc(Cl)cc1)S(=O)(=O)/C=C/c1ccc(Cl)cc1 do in these assays?
CapD inh: -0.295

What do the screens show for `O=C1NC(=Nc2ccc(Br)cc2)SC1Cc1ccccc1` (stereo not given)?
CapD inh: -0.275

What do the screens show for `O=C1NC(=S)S/C1=C\c1c(F)cccc1Cl`?
CapD inh: -4.05*

How did CCCNC(=O)Cn1ncc2c3ccccc3n(Cc3ccccc3)c2c1=O do in these assays?
CapD inh: 0.295; AID504770: -0.2

What do the screens show for `CCOc1ccc(-c2cc(CCCC(=O)Nc3ccc(CC)cc3)no2)cc1`?
CapD inh: 0.26; AID504770: 0.05

Results for O=C1C2C3C=CC(C3)C2C(=O)N1c1cccc(N2C(=O)C3C4C=CC(C4)C3C2=O)n1 (stereo not given) ?
CapD inh: 0.085

How did COCCN(Cc1ccccc1)C(=O)Cc1c(C)noc1C do in these assays?
AID504770: 0.65

How did COC(=O)c1ccc2c(c1)N(Cc1cc(C)ccc1C)C(=O)c1ccccc1S2=O (stereo not given) do in these assays?
CapD inh: -0.655; AID504770: 0.3

Results for O=C(Nc1ccc(F)cc1F)C1OC2OC3(CCCCC3)OC2C2OC3(CCCCC3)OC12 (stereo not given) ?
CapD inh: -1.27

What do the screens show for `O=C1N2CCSC2=NC1(Nc1nccs1)C(F)(F)F` (stereo not given)?
CapD inh: -0.495; AID504770: 0

What do the screens show for `Cc1ccc(C(=O)N2c3ccc(C)cc3[C@@H]3CN(C)CC[C@H]32)cc1`?
CapD inh: -0.295; AID504770: -0.5

Results for CC(C)(C)OC(=O)/N=C(\N)N(CCCC(NC(=O)OC(C)(C)C)C(=O)N1CCC(C(N)=O)CC1)C(=O)OC(C)(C)C (stereo not given) ?
CapD inh: 0.185

Results for COc1cccc(N(C)C(=O)c2ccc(Cl)c(S(=O)(=O)N(C)C)c2)n1 ?
AID504770: 0.95

What do the screens show for `O=C1NC(=Nc2ccccc2)SC1Cc1ccccc1` (stereo not given)?
CapD inh: 0.035

Results for CCC1(CC)COC2(OC1)C(=O)Nc1ccc(F)cc12 ?
CapD inh: -0.54; AID504770: -0.45

An excerpt from above in order of heavy-atom count, low to high.
Results for CCC1(CC)COC2(OC1)C(=O)Nc1ccc(F)cc12 ?
CapD inh: -0.54; AID504770: -0.45

What do the screens show for `Cc1ccc(C(=O)N2c3ccc(C)cc3[C@@H]3CN(C)CC[C@H]32)cc1`?
CapD inh: -0.295; AID504770: -0.5

What do the screens show for `CCOc1ccc(-c2cc(CCCC(=O)Nc3ccc(CC)cc3)no2)cc1`?
CapD inh: 0.26; AID504770: 0.05

Results for O=C1C2C3C=CC(C3)C2C(=O)N1c1cccc(N2C(=O)C3C4C=CC(C4)C3C2=O)n1 (stereo not given) ?
CapD inh: 0.085

Results for O=C(Nc1ccc(F)cc1F)C1OC2OC3(CCCCC3)OC2C2OC3(CCCCC3)OC12 (stereo not given) ?
CapD inh: -1.27

Results for CC(C)(C)OC(=O)/N=C(\N)N(CCCC(NC(=O)OC(C)(C)C)C(=O)N1CCC(C(N)=O)CC1)C(=O)OC(C)(C)C (stereo not given) ?
CapD inh: 0.185

The listing continues.
Results for CC(C)(C)OC(=O)NC1CCN(S(=O)(=O)c2cc(C(F)(F)F)cc(C(F)(F)F)c2)C1 (stereo not given) ?
CapD inh: -0.34

What do the screens show for `O=C(O)CN1C(=O)CCCc2ccccc21`?
CapD inh: -0.21; AID504770: -0.35

What do the screens show for `CC1CCC(NC(=O)Nc2cn(C)c(=O)c3ccccc23)CC1` (stereo not given)?
CapD inh: 7.33; AID504770: -0.7

Results for CN(Cc1ccc(Br)s1)Cc1cc2c(cc1O)OCO2 ?
AID504770: 0

How did CCc1ccc(-c2ccc(C(=O)NCCCOC)cc2)cc1 do in these assays?
CapD inh: 1.91

What do the screens show for `N#CC(C#N)=Cc1cn(-c2ccccc2)nc1C12CC3CC(CC(C3)C1)C2`?
AID504770: -0.7

Results for COC(=O)C(C)Sc1nnc(-c2ccncc2)o1 (stereo not given) ?
CapD inh: -0.045

What do the screens show for `CCC1CCCCN1c1ncnc2c1nnn2Cc1ccccc1Cl` (stereo not given)?
AID504770: 0.15

How did CC(C)(C)Nc1nc(OCC(F)(F)F)nc(OCC(F)(F)F)n1 do in these assays?
CapD inh: 0.23

How did Nc1c(C(=O)Nc2nccs2)sc2nc3c(c(-c4ccco4)c12)CCCC3 do in these assays?
CapD inh: -1.02

Results for Cc1ccc(S(=O)(=O)NCCCN(CCN(CCCNS(=O)(=O)c2ccc(C)cc2)S(=O)(=O)c2ccc(C)cc2)S(=O)(=O)c2ccc(C)cc2)cc1 ?
CapD inh: -0.285

What do the screens show for `Cc1cc(C)nc(NS(=O)(=O)c2ccc(NC(=O)c3cccc(F)c3)cc2)n1`?
CapD inh: -0.1
